# Assay outcomes: PubChem, National Center for Advancing Translational Sciences (NCATS)
# Vaccinia Venus = vaccinia inhibition (Venus reporter); Vaccinia virus Venus reporter expression, fluorescence; Potency, µM (top dose mostly 36.5 µM), for inactives: top-dose activity change, negative = inhibition, most hits filed as inhibitors; hit rate 0.46% among 330,000; active means well fitted inhibition curve with a large enough effect; inconclusive means small, poorly fitted or top-dose-only effect; inactive means no such curve, though single readings can be large or run the other way; tested in A549 cells; also: nearly all actives have a fitted effect of over 30% in size; inactives centre near -10
# Vaccinia mCherry = inhibitors of vaccinia virus infection (mCherry reporter signal); hit rate 0.63% among 310,000; Vaccinia virus mCherry reporter infection, fluorescence; about a quarter of the inactives have no number; Potency, µM (top dose mostly 36.5 µM), for inactives: at the highest dose activity change, negative = inhibition, actives largely listed as inhibitors; active = well fitted inhibition curve with a large enough effect; inconclusive = small, poorly fitted or top-dose-only effect; inactive = no such curve, though single readings can be large or run the other way; tested in A549 cells; also: nearly all actives have a fitted effect of over 35% in size; inactives centre near -10
# Active calls of the source: *; i = inactive; ? = inconclusive; nt = no result given; & = joins results of further samples. % is scaled to controls: 0 for no effect and ±100 for the full control effect; potency is read from the fitted curve at half-maximal effect.
# Order of results: Vaccinia Venus	Vaccinia mCherry
- Cc1cc(C)cc(NC(=O)CSCc2cc(=O)c3cc(Cl)ccc3[nH]2)c1
 : -6%	7%
- Cn1cc(S(=O)(=O)c2cccc(Cl)c2)c(=O)c2cc(F)c(N3CCCCCC3)cc21
 : ?	-18%
- CC1CCCC(C)N1C(=O)COC(=O)c1ccc(Br)c(S(=O)(=O)N2CCOCC2)c1 (configuration not stated)
 : -5%	-4%
- CCc1cccc(NC(=O)CCc2c(C)nc3c(-c4ccccc4)c(C)nn3c2C)c1
 : -10%	-6%
- O=C(Cc1ccccc1)c1ccc(N2CCOCC2)cc1
 : -25%	-1%
- COc1cc(CN2CCOc3ccc(CN4CCC(Oc5cccnc5)CC4)cc3C2)ccc1F
 : -10%	-17%
- NCCCC[C@H](NC(=O)C1CCNCC1)c1nnc([C@@H](N)Cc2ccc(O)cc2)o1
 : -3%	i
- COc1cccc(C(=O)Cn2c(=N)n(C)c3ccccc32)c1
 : -10%	nt
- CN(CC(=O)Nc1ccc(F)cc1)C(=O)CSc1nc2ncc(Cl)cc2[nH]1
 : -10%	i
- O=C(Nc1ccc(N2C(=O)C3C4C=CC(C4)C3C2=O)cc1)Nc1nnc(C(F)(F)F)s1 (configuration not stated)
 : -27%	-23%
- COc1ccccc1-n1cnnc1SCC(=O)Nc1ccccc1
 : 17%	3%
- CCc1nc2c(OCc3ccc(Cl)cc3Cl)cccn2c1N(C)C(=O)C1CC1
 : -9%	i
- COC(=O)c1sc(NC(=O)c2cc3nc(-c4ccc(Br)cc4)cc(C(F)(F)F)n3n2)c(C(=O)OC)c1C
 : -11%	-6%
- Cc1ccc2c(c1)c1nnc(SCC(=O)N3CCN(c4ccc(F)cc4)CC3)nc1n2CC(=O)O
 : 2%	-7%
- O=C(O)c1ccccc1OP(=O)(O)O
 : -5%	-10%
- Cc1oc2ncnc(N3CCOCC3)c2c1C(=O)N(Cc1ccccc1)C(C)C
 : -12%	0%
- C[C@@H]1CN([C@@H](C)CO)C(=O)c2cccc(NS(C)(=O)=O)c2O[C@H]1CN(C)Cc1ccc(Oc2ccccc2)cc1
 : -21%	-6%
- CN1CCC(Oc2ccccc2Sc2ccccc2)CC1
 : ?	?
- CC(C(=O)NCc1ccccc1)n1c(Cc2cc(F)cc(F)c2)nc2ccccc21 (configuration not stated)
 : -7%	-21%
- O=C(CCCc1ccccn1)c1ccc(-c2ccccc2)cc1
 : 15%	-3%
- CC(OC(=O)c1ccc(Cl)nc1)C(=O)Nc1ccc(S(=O)(=O)N2CCCC2)cc1 (configuration not stated)
 : -9%	-14%
- C=CCN1C(=O)/C(=c2\sc3nc(=O)c(Cc4ccccc4)nn3c2=O)c2ccccc21
 : -2%	i
- COC(=O)Nc1ccc(SCC(=O)c2ccc(Cl)cc2)cc1
 : -9%	i
- COc1ccc(CNC(=O)c2cc(Nc3ccccc3C)nc3ccccc23)cc1
 : 5%	-2%
- CCOc1ccc2nc(SCC(=O)N(CC(C)C)c3c(N)n(Cc4ccccc4)c(=O)[nH]c3=O)[nH]c2c1
 : -8%	-9%
- O=C(Nc1ccc(C(=O)O)cc1)/C(=C\c1ccc2c(c1)OCO2)NC(=O)c1ccccc1Cl
 : -8%	i
- COc1cc(NC(=O)CCCn2c(=S)[nH]c3ccccc3c2=O)cc(OC)c1OC
 : -8%	-19%
- O=C(NCc1ccc(F)cc1)c1cnc(Cl)c(Cl)c1
 : -1%	30%
- c1ccc(Nc2ccc(Nc3ccccc3)cc2)cc1
 : -12%	-7%
- COc1ccc(C2=NCC(=S)Nc3ccc(Cl)cc32)cc1OC
 : -4%	-19%
- NC(=O)c1ccsc1NC(=O)c1ccco1
 : -14%	-5%
- Cc1c(Cl)c([N+](=O)[O-])nn1CCCC(=O)O
 : -3%	-13%
- COc1ccc(CNC(=O)Cn2c(=O)nc(-c3ccccc3F)c3cc(Cl)ccc32)cc1OC
 : -15%	i
- O=C(/C=C/c1ccc(Cl)cc1)NCCSc1ccccc1
 : -7%	i
- Cn1nnc2c(NCc3c(F)cccc3F)ncnc21
 : -9%	-15%
- COc1ccc(CCNC(=O)/C(C#N)=C/c2cccc(OCc3ccccc3)c2)cc1OC
 : -22%	-13%
- NS(=O)(=O)c1ccc(CCNC(=O)CSc2nc3ccsc3c(=O)n2CCCCC(=O)O)cc1
 : -3%	i
- C[C@H](CO)N1C[C@H](C)[C@@H](CN(C)C(=O)Nc2ccc(C(F)(F)F)cc2)Oc2ccc(NC(=O)C3CCCCC3)cc2C1=O
 : -7%	-7%
- COc1cccc(-c2nnc(NC(=O)CCS(=O)(=O)c3ccc(F)cc3)o2)c1
 : ?	?
- CC[C@]12c3[nH]c4ccc(Cl)cc4c3CCN1C(=O)[C@@H](CC(=O)NCc1ccco1)C[C@@H]2C(=O)N1CCN(C(=O)C2CC2)CC1
 : -9%	-3%
- Cc1ccc(NC(=O)c2sc3nc(-c4ccc(F)cc4)cn3c2C)c(C)c1
 : -22%	-29%
- CN1CCN(NC(=O)c2ccc(Cl)c([N+](=O)[O-])c2)CC1
 : -14%	nt
- Cc1ccc(/C=C2\SC(=S)N(CCC(=O)NNC(=O)c3ccccc3O)C2=O)cc1
 : 14%	i
- COc1ccc(NC(=S)N(Cc2ccccn2)Cc2ccccc2Cl)cc1
 : 2%	0%
- N#CC1=C(N)NC(SCc2ccc(Cl)cc2)=C(C#N)C12CCCCC2
 : ?	nt
- O=C(COc1cccc2c1CCN(Cc1ccc(Br)cc1)C2=O)N1CCOCC1
 : -10%	-9%
- Cc1ccc(O)c(-n2nc3ccccc3n2)c1
 : -12%	-18%
- COCCCNC(=O)c1ccc(CS(=O)(=O)Cc2cccc(C)c2)o1
 : -7%	-9%
- Fc1ccc(-c2cc(C(F)(F)F)n3ncnc3n2)cc1
 : -7%	-18%
- CC(=O)Nc1ccc(Oc2nc(C(F)(F)F)nc3ccccc23)cc1
 : -12%	i
- CC(CCNC(=O)c1ccccc1)(CCNC(=O)c1ccccc1)[N+](=O)[O-]
 : -16%	i
- CN1CCC(OC(=O)COc2ccc(Br)cc2)CC1
 : -3%	5%
- O=C(C(=O)N1CCN(c2ccccc2)CC1)c1ccncc1
 : -11%	-28%
- COC(c1ccccc1)c1nnc(CCC(=O)NCCCc2ccccc2)o1 (configuration not stated)
 : -4%	-9%
- C=CC(=O)NCc1ccc(-c2csnn2)cc1
 : ?	?
- Brc1cccc(-c2nnc(-c3ccccc3)o2)c1
 : -7%	-13%
- Cc1cc(F)ccc1NCc1cc2c(cc1[N+](=O)[O-])OCO2
 : -12%	i
- O=C(NCc1ccccc1Cl)c1cc2ccccc2o1
 : 3%	-6%
- COCOCCn1cc(CN2CCS(=O)(=O)N(Cc3ccc(-c4ccc(OC)cc4)cc3)C(C)C2=O)nn1 (configuration not stated)
 : ?	-5%
- Cc1ccc(-c2cc(C(=O)NCc3cnn(C)c3)c3cc(Br)ccc3n2)cc1
 : -3%&-4%	-10%&-13%

# 3 compounds already listed, arranged by SMILES length, falling.
# Order of results: Vaccinia Venus	Vaccinia mCherry
- O=C(Nc1ccc(C(=O)O)cc1)/C(=C\c1ccc2c(c1)OCO2)NC(=O)c1ccccc1Cl
 : -8%	i
- CC(=O)Nc1ccc(Oc2nc(C(F)(F)F)nc3ccccc23)cc1
 : -12%	i
- Cn1nnc2c(NCc3c(F)cccc3F)ncnc21
 : -9%	-15%

# Next part.
# Order of results: Vaccinia Venus	Vaccinia mCherry
- CCn1c(C)nc2cc(S(=O)(=O)N3CCCCC3)ccc21
 : -15%	-23%
- Cc1c(NC(=O)CSCc2ccco2)c(=O)n(-c2ccccc2)n1C
 : 5%	-19%
- COc1ccc(Br)c(Cn2c(C)c(C(=O)N(C)Cc3ccc(F)cc3)sc2=O)c1
 : -2%	1%
- COc1cccc(CN(C)C(=O)c2cccc(S(=O)(=O)N3CCN(Cc4ccccc4)CC3)c2)c1OC
 : -22%	-8%
- O=C(c1ccc([N+](=O)[O-])s1)N1CCN(c2ccccc2)CC1
 : ?	-25%
- COC(=O)c1ccc(C)c(-n2c(C)cc(C=O)c2C)c1
 : -15%	-15%
- Cc1cc(C)c(NC(=O)CN(C2CCCCC2)C2CCCCC2)c(C)c1
 : -15%	-20%
- Cc1[nH]n(-c2ccccc2)c(=O)c1C(c1ccccc1C(=O)O)c1c(C)[nH]n(-c2ccccc2)c1=O
 : -10%	i
- C=CCN(CC=C)Cc1cc(=O)oc2cc(C)ccc12
 : 2%	4%
- Cc1cc(C(=O)OCC(=O)Nc2ccccc2C)c(C)o1
 : 2%	-5%
- Cc1cc(S(=O)(=O)N2CCCCC2CCNC(=O)C(=O)NCCN2CCOCC2)ccc1F (configuration not stated)
 : -4%	i
- COc1ccccc1N1CCN(CCCC(=O)c2ccc(F)cc2)CC1
 : -10%	-12%
- Clc1cccc(Cc2c(-c3ccccc3)nc3ccc(Cl)cn23)c1
 : -9%	i
- CCN(CC)C(=S)SC1CCCCN(C(=O)c2ccc(F)cc2)C1=O (configuration not stated)
 : -11%	i
- CC(=O)c1cccc(-c2cnc3c(NC=O)cc(-c4cccc(C(=O)N(C)C)c4)cn23)c1
 : -5%	-30%
- O=C(CN1C(=O)c2ccccc2C1=O)Nc1cccc(O)c1
 : -8%	-14%
- O=C(Cn1cnc2nc3n(c2c1=O)CCC3)NCc1ccccc1
 : -2%	i
- Cc1ccc(NC(=O)CS(=O)Cc2nc(-c3ccc(C)cc3)oc2C)cc1 (configuration not stated)
 : -9%	5%
- ClC(Cl)=C(c1ccc(Cl)cc1)c1ccc(Cl)cc1
 : -12%&10%	4%
- CCOc1ccc2oc(C(=O)N3CCN(c4ccccn4)CC3)c(C)c2c1
 : -13%	-17%
- CCc1ccc(/C=C(/C#N)C(N)=S)s1
 : -9%	i
- Cc1cc(C)c(S(=O)(=O)c2cccc(Br)c2C)c(Cl)n1
 : -10%	-20%
- CNC(=O)Oc1cccc2c1OC(C)(C)O2
 : 4%&-16%	-15%
- C=CCNC(=O)c1ccccc1NS(=O)(=O)c1ccc(SC)cc1
 : -8%	i
- Cc1cc(NC(=O)COC(=O)CSCc2ccc(Cl)c(Cl)c2)no1
 : -7%	-8%
- CC(c1ccc(Br)cc1)N1CC23C=CC(O2)C(C(=O)O)C3C1=O (configuration not stated)
 : 0%	-8%
- CC(C)COCC(CN(Cc1ccccc1)c1ccccc1)N1CCCC1 (configuration not stated)
 : ?	-18%
- COc1cc(/C=C/[N+](=O)[O-])ccc1OC(=O)/C=C/c1ccc(F)cc1
 : -1%	-10%
- Cc1cc2cccc(C)c2nc1SCC(=O)NC1CCCCC1
 : 2%	-18%
- CCCCCCCCC(=O)NC(NC(=S)N1CCOCC1)C(Cl)(Cl)Cl (configuration not stated)
 : -24%	-22%
- O=C1C2CCCN2C(=O)N1CCN1CCN(CCO)CC1 (configuration not stated)
 : -3%	i
- CC(C)NC(=O)CCCN1C(=O)CCn2nc(-c3cccn3C)cc21
 : 0%	-14%
- CCCCOC(=O)c1ccc(NC(=O)C(=O)NCc2cccnc2)cc1
 : 8%	-25%
- Cc1c(C(=O)O)cccc1[N+](=O)[O-]
 : -3%	i
- Cc1cc(C)c2c(c1)c(C)cc1nnc(SCc3ccccc3C#N)n12
 : -12%	-11%
- COc1ccc(OC)c(NC(=O)c2c(NCc3ccc(OC)c(OC)c3)sc3c2CCC3)c1
 : -8%	-13%
- O=C(CN1C(=O)NC2(CCCCCC2)C1=O)Nc1ccc(OC(F)(F)F)cc1
 : -30%	-15%
- COC(=O)c1ccc(CSc2ccc3nnc(-c4cccc(F)c4)n3n2)o1
 : -18%	i
- Cc1ccc2c(c1)N(CC(=O)N1CCCC(C)C1)C(=O)CO2 (configuration not stated)
 : -2%	i
- O=C(CCN1N=C(c2ccccc2)CCC1=O)NC1CCCCC1
 : -13%	-19%
- O=C(COc1ccc(Br)cc1)Nc1ccc(C(=O)Nc2ccccc2C(=O)O)cc1
 : -9%	i
- CC(=O)N1CCN(c2ccc(OC[C@@H]3CO[C@@](Cn4ccnc4)(c4ccc(Cl)cc4Cl)O3)cc2)CC1
 : ?	?
- CC(NC(=O)c1ccc(CS(=O)(=O)Cc2ccccc2F)o1)c1ccc2c(c1)OCCO2 (configuration not stated)
 : -17%	nt
- COc1cccc(CN(C)C(=O)c2ccc(NS(=O)(=O)c3ccc4[nH]c(=O)[nH]c4c3)cc2)c1OC
 : -11%	-4%
- CCn1cc(C(=O)NCCc2ccc(OC)c(OC)c2)c(=O)c2cc(S(=O)(=O)N3CCOCC3)ccc21
 : -18%&-15%	-12%
- Cn1cnc(S(=O)(=O)N2CCCC(C(=O)Nc3cccc(C#N)c3)C2)c1 (configuration not stated)
 : -6%	-11%
- O=C(CCC1N=C2c3ccccc3N=C(SCc3ccc(F)cc3)N2C1=O)N1CCN(c2ccccc2)CC1 (configuration not stated)
 : -10%	-13%
- COc1ccccc1NS(=O)(=O)c1cc(NC(=O)c2ccco2)ccc1N1CCOCC1
 : -6%	i
- CCc1nnc(NC(=O)c2nc(S(=O)(=O)Cc3ccc(C)cc3)ncc2Cl)s1
 : -13%&-7%	-8%
- CCOc1ccc(S(=O)(=O)N(CC(=O)Nc2ccc(OC)c(Cl)c2)c2ccccc2)cc1
 : -14%	-15%
- CC(C)C[C@H]1COc2cc(N3CCC[C@@H]3CO)ccc2S(=O)(=O)N1
 : -1%	-10%
- CCN(CC)S(=O)(=O)c1cccc(C(=O)NCCCN2CCOCC2)c1
 : -6%	-16%
- Cc1ccn2c(CNC(C)CCn3cccn3)c(C(=O)N3CCCCCC3)nc2c1 (configuration not stated)
 : 19%	i
- CCN(C[C@H]1N[C@@](CC)(C(=O)OC)[C@H]2C(=O)N(C)C(=O)[C@@H]12)C(=O)c1ccc(C(C)(C)C)cc1
 : 10%	-8%
- CC(=O)Nc1nn(C)c2nc3ccc(C)cc3cc12
 : -12%	i
